NPYLR7 agonist: mosquito NPYLR7 agonism. HEK293T NPYLR7/Galpha15, GCaMP6s calcium fluorescence. activation, % at 10 µM. 270,000 tested, 0.15% active. AID 1259423; in the data active means activation above about 40%;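 further: 0% = vehicle and 100% = reference agonist at the receptor; some compounds past the cut are filed as inactive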
NPYLR7 agonist max-min: also measured in NPYLR7 agonist; calls as there; activation, %; measured here: Max-Min RFU normalised activation; some inactives read as strong as hits;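 span of the calcium signal over five minutes; 0% = vehicle and 100% = native peptide agonist; compound fluorescence can raise it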
Active calls of the source: *; & = joins results of further samples. Not all compounds are listed; rates above refer to the full screens.

The first 19 entries as a preview:
SMILES	NPYLR7 agonist	NPYLR7 agonist max-min
COC(=O)c1sc(N2C(=O)C(=O)C(=C(O)c3ccccc3)C2c2ccc(OC)cc2)nc1C (stereo not drawn)	7.7	5.5
O=C(CCc1ccccc1)Nc1ccc(C2SCC(=O)N2c2ccc(C(F)(F)F)cc2)cc1 (stereo not drawn)	-8.6	6.3
Cc1nc(N)nc(C)c1CC(=O)N1CCCC(Cn2ccnc2)C1 (stereo not drawn)	-7.3	-8.3
CNc1nc2cnc(-c3cc(OC)c(OC)c(OC)c3)cc2n1Cc1ccccc1	18.6	7.1
N#Cc1cccc(COC(=O)CC(NC(N)=O)c2cccs2)c1 (stereo not drawn)	-6.7	-7.8
OC1(c2ccccc2)CN(c2ccccc2)C2=[N+]1CCCS2 (stereo not drawn)	5.3	3.2
CC(C)CN(Cc1nccn1Cc1ccccc1F)C(=O)NC(C)(C)C	20.3	17.4
CC(C)NC(=O)[C@@H]1C[C@@H](N)CN1C(=O)Cc1c(Cl)cccc1Cl	43.1	32.0
CCOC(=O)c1c(N)sc2c1CCC2	-5.8	-7.5
C=C(C)Cn1c(=O)c2c(nc3n2CCN3c2ccccc2C)n(C)c1=O	-4.9	-6.6
COCCN=c1scc(-c2ccc(OC(F)F)cc2)n1N=Cc1ccc(O)cc1	14.5	8.6
CC(=O)NCCC(=O)N1CCCC(C(=O)c2ccc(-c3ccccc3)cc2)C1 (stereo not drawn)	14.0	-0.4
CCNC(=S)N(CCN(C)C)Cc1csc(COc2cccc(C)c2C)n1	-1.2	3.4
Cc1cccc(NC(=O)CC(=O)NCCCn2nnc3ccccc32)c1C	17.1	7.9
Cc1c(C(=O)NC(C)CCc2ccccc2)cc(-c2ccccc2)n1-c1ccccc1Cl (stereo not drawn)	-8.4	0.6
CCCCS(=O)(=O)NC1(c2ccc(Br)cc2)CC1	-1.4	0.0
Cc1ccccc1-c1nc(OCC(C)C)nn1-c1ccc(NC(=O)CCl)cc1	10.8	17.9
COc1ccccc1/C=C/CNCC1(N2CCOCC2)CCSC1 (stereo not drawn)	5.2	-15.0
CC1(C(=O)Nc2ccccc2F)CCN1C(=O)Cc1ccc(-c2ccccc2)cc1 (stereo not drawn)	7.2	4.5

This part in full (from the top)
SMILES	NPYLR7 agonist	NPYLR7 agonist max-min
COC(=O)c1sc(N2C(=O)C(=O)C(=C(O)c3ccccc3)C2c2ccc(OC)cc2)nc1C (stereo not drawn)	7.7	5.5
O=C(CCc1ccccc1)Nc1ccc(C2SCC(=O)N2c2ccc(C(F)(F)F)cc2)cc1 (stereo not drawn)	-8.6	6.3
Cc1nc(N)nc(C)c1CC(=O)N1CCCC(Cn2ccnc2)C1 (stereo not drawn)	-7.3	-8.3
CNc1nc2cnc(-c3cc(OC)c(OC)c(OC)c3)cc2n1Cc1ccccc1	18.6	7.1
N#Cc1cccc(COC(=O)CC(NC(N)=O)c2cccs2)c1 (stereo not drawn)	-6.7	-7.8
OC1(c2ccccc2)CN(c2ccccc2)C2=[N+]1CCCS2 (stereo not drawn)	5.3	3.2
CC(C)CN(Cc1nccn1Cc1ccccc1F)C(=O)NC(C)(C)C	20.3	17.4
CC(C)NC(=O)[C@@H]1C[C@@H](N)CN1C(=O)Cc1c(Cl)cccc1Cl	43.1	32.0
CCOC(=O)c1c(N)sc2c1CCC2	-5.8	-7.5
C=C(C)Cn1c(=O)c2c(nc3n2CCN3c2ccccc2C)n(C)c1=O	-4.9	-6.6
COCCN=c1scc(-c2ccc(OC(F)F)cc2)n1N=Cc1ccc(O)cc1	14.5	8.6
CC(=O)NCCC(=O)N1CCCC(C(=O)c2ccc(-c3ccccc3)cc2)C1 (stereo not drawn)	14.0	-0.4
CCNC(=S)N(CCN(C)C)Cc1csc(COc2cccc(C)c2C)n1	-1.2	3.4
Cc1cccc(NC(=O)CC(=O)NCCCn2nnc3ccccc32)c1C	17.1	7.9
Cc1c(C(=O)NC(C)CCc2ccccc2)cc(-c2ccccc2)n1-c1ccccc1Cl (stereo not drawn)	-8.4	0.6
CCCCS(=O)(=O)NC1(c2ccc(Br)cc2)CC1	-1.4	0.0
Cc1ccccc1-c1nc(OCC(C)C)nn1-c1ccc(NC(=O)CCl)cc1	10.8	17.9
COc1ccccc1/C=C/CNCC1(N2CCOCC2)CCSC1 (stereo not drawn)	5.2	-15.0
CC1(C(=O)Nc2ccccc2F)CCN1C(=O)Cc1ccc(-c2ccccc2)cc1 (stereo not drawn)	7.2	4.5
COCCN(CC(=O)N(CCc1ccc(OC)c(OC)c1)Cc1sccc1C)S(=O)(=O)c1ccc(Br)cc1	-9.4	-13.0
O=C(c1nn2c(C(F)(F)F)cc(-c3ccccc3)nc2c1Cl)N1CCOCC1	4.3	3.0
COc1cccc(NC(=O)Cc2c(C)nc3ncnn3c2C)c1	6.9	1.3
COCCc1nc2ccc(C(=O)N3CCNC(=O)C3Cc3ccccc3)cc2o1 (stereo not drawn)	-2.5	-4.1
Cc1nnc(CN(C)C(=O)CC(c2ccccc2)c2ccc3c(c2)OCO3)o1 (stereo not drawn)	12.3	3.8
Cc1ccc(-c2c(C)nn3c(NC4CCCCC4)cc(C)nc23)cc1	-6.9	-8.9
CN(C)CCCN1C(=O)C(=O)C(=C(O)c2ccc(Cl)cc2)C1c1ccc([N+](=O)[O-])cc1 (stereo not drawn)	3.1	2.1
CC1(C)C(c2ccc(Cl)cc2)=[N+]([O-])C(C)(C)C(c2ccc(Cl)cc2)=[N+]1[O-]	8.8	13.6
COc1ccc(CCNC(=O)CSc2n[nH]c(C(C)(C)C)n2)cc1	10.1	3.6
CS(=O)(=O)Oc1ccccc1CNCc1ccco1	28.0	26.6
COc1ccc(CCN2CCC(CN(C)C(=O)C3CCOC3)CC2)cc1 (stereo not drawn)	1.9	-4.8
Cc1cnc(NC(=O)c2nc(C3CC3)n(-c3ccccc3)n2)s1	2.8	5.5
O=C(Cc1n[nH]c(=O)c2ccccc12)NCCSCc1ccccc1	-7.6	-9.8
CC=CCn1c(=O)c2c(nc3n(-c4ccccc4N)c(C)c(C)n23)n(C)c1=O	3.4	-1.3
Cc1nc2ccc(Cl)cn2c(=O)c1NC(=O)C(C)(C)C	3.8	1.4
CC1CC(C)CN(Cc2ccccc2CNC(=O)c2ccco2)C1 (stereo not drawn)	1.0	0.7
C=CCN(Cc1nccn1Cc1c(F)cccc1Cl)C(=O)c1ccco1	30.7	36.2
CCN1CCC2CCC(C1)N2CC(=O)NCCOc1cccc(F)c1 (stereo not drawn)	-10.1	-10.3
CC(C)(C)OC(=O)C1=NN(C(=O)OC(C)(C)C)C[C@@H]2CC(=O)N12	0.2	-2.7
O=[N+]([O-])c1ccc(CN2CCCn3cccc3C2c2ccoc2)cc1 (stereo not drawn)	1.5	8.9
CN1CCCC1CCNC(=O)CC(=O)Nc1ccc(F)c(Cl)c1 (stereo not drawn)	-1.9	-6.9

Laid out differently: 3 of the compounds above
Every second line gives: NPYLR7 agonist | NPYLR7 agonist max-min
Cc1ccc(-c2c(C)nn3c(NC4CCCCC4)cc(C)nc23)cc1
    -6.9 | -8.9
COc1ccc(CCN2CCC(CN(C)C(=O)C3CCOC3)CC2)cc1 (stereo not drawn)
    1.9 | -4.8
CCN1CCC2CCC(C1)N2CC(=O)NCCOc1cccc(F)c1 (stereo not drawn)
    -10.1 | -10.3

More structures follow.
SMILES	NPYLR7 agonist	NPYLR7 agonist max-min
CC(=O)c1ccc(C(=O)N(Cc2cccnc2)c2nc3ccc(Cl)cc3s2)cc1	-7.9	-0.7
CCCn1ncc(CN2CCCC(C(=O)Nc3ccccc3-c3ccc(OC)cc3)C2)c1C (stereo not drawn)	-3.6	-6.1
C=CCNC(=O)Cn1c(CO)cnc1SCc1ccccc1	4.5	-0.6
COC(=O)CCCCCNC(=O)C1CCN(S(=O)(=O)c2ccc(F)cc2)CC1	5.4	-1.1
O=C(O)C1CCN(c2ncnc3sc4c(c23)CCC4)CC1	8.8	11.5
CC[C@H](O)[C@@H]1N(C(=O)OC)C2CCC1(O)CC2	2.0	11.5
Cc1cc(C(=O)N(CC2CCCO2)c2nc3c(F)cc(F)cc3s2)nn1C (stereo not drawn)	7.1	4.2
O=C(CN1Cc2ccccc2OC(c2ccsc2)C1)NCc1nc(-c2ccccc2)cs1 (stereo not drawn)	12.5	1.7
O=C1Nc2ccc(Br)cc2C12Nc1ccccc1S2 (stereo not drawn)	11.2	3.9
Cc1ccc(N2C(=O)C(c3c(C)[nH]n(-c4ccccc4)c3=O)=C([n+]3cc(C)cc(C)c3)C2=O)cc1	-5.2	-3.3
CCCCCCCCCCCC(=O)N1CCc2nc(C)nc(N3CCOCC3)c2C1	-3.3	2.9
Oc1[nH]c2ccccc2c1N=Nc1ncnc2sc3c(c12)CCC3	5.7	5.0
O=C(CCCc1ccccc1)Nc1ccnn1C1CCN(C(=O)C2CC23CCCC3)CC1 (stereo not drawn)	16.2	5.1
COc1c(C)cc(C(=O)C2CCCN(Cc3cn[nH]c3C(=O)O)C2)cc1C (stereo not drawn)	3.7	1.6
CCCc1nc(C)sc1C(=O)NCCCOc1cccc([N+](=O)[O-])c1	-8.8	-10.0
O=C(CN1CCCOc2ccccc21)NCc1cccs1	-22.3	-23.5
CCCOc1cn(-c2ccc(F)cc2)nc1C(=O)N1CCN(C)CC1	-7.6	-8.8
O=S(=O)(Nc1cccc(N2CCC(NCCc3cccs3)CC2)c1)c1ccc(F)cc1	13.0	2.5
CCOc1ccc(-n2c(SC(C)C(=O)OC)nc3c(c2=O)SCC3)cc1 (stereo not drawn)	0.1	35.5
Cc1ccc(OCC(O)Cn2c(C(F)(F)F)ccc(C(N)=O)c2=O)c(C)c1 (stereo not drawn)	6.2	2.2
CN1C(=O)CN(C(=O)Cc2ccc(S(=O)(=O)N3CCCCC3)cc2)c2ccccc21	-0.4	-5.2
CCCCSc1ncnc2c1sc1nc3c(cc12)COC(C)(C)C3	16.4	5.4
S=C(NCc1cccs1)N1CCN(c2ncccn2)CC1	0.8	5.0
C/C=C\C(=O)N1CCN(Cc2nnnn2-c2ccc(Cl)cc2)CC1	-3.1	-2.5
CCOC(=O)C1CCN(C(c2ccc(CC)cc2)C2Sc3nc(CC)nn3C2=O)CC1 (stereo not drawn)	-0.2	20.7
COc1ccc(-c2cnnc(N3CCC(c4ccccc4Cl)C3)n2)cc1 (stereo not drawn)	2.3	1.4
CNC(=O)CC(=O)N1C[C@H](Oc2ccccn2)[C@H]2C[C@@H]1CC[C@H]2OC	18.7	27.5
Cc1noc(C)c1CN(C)C(=O)c1cc(COc2ccccc2F)[nH]n1	2.6	0.5
O=C1C=C(N(CCO)CCO)C2(CCCCC2)O1	-3.0	-2.8
O=C(CSc1nc2ccccc2o1)OCc1cc(-c2ccc3c(c2)OCCO3)on1	1.3	-1.2
O=C(c1cc(COc2cncc(Cl)c2)on1)N1CCCCC1c1nccs1 (stereo not drawn)	-0.8	-2.7
CCCC(=O)Nc1ccc2c(c1)nc(CCn1ccccc1=O)n2C	-15.4	-20.4
C=C(C)COc1ccccc1C(=O)NC(C)c1nc(-c2cccnc2)no1 (stereo not drawn)	13.3	7.7
Cc1cccc(S(=O)(=O)N2CCN(C(=O)Nc3ccccc3)CC2)c1	-5.3&4.7	-7.4&-1.2
CN(C)CCCN(CCCN(C)C)Cn1nc(-c2ccccc2)n(C)c1=S	1.6	1.3
CSc1nnc2c(n1)OC(c1ccc(-c3ccc(Cl)cc3)o1)Nc1ccccc1-2 (stereo not drawn)	-8.6	-11.4
CCOC(=O)c1cc(-c2ccc(Cl)cc2Cl)n(-c2ccc(C(=O)NCc3ccccn3)cc2)n1	3.0	3.2
COc1cc(C2SCCN2C(=O)Nc2ccccc2)ccc1OCc1ccccc1 (stereo not drawn)	15.1	23.4
Cc1ccc(C(=O)OCC(=O)c2ccc([N+](=O)[O-])cc2)o1	0.3	0.5
Cc1ncc(Cl)c(C(=O)Nc2ccc(CC(=O)N(C)C)cc2)n1	7.9	2.5
CCn1c(C2CCN(C(=O)c3ccc(-n4cccn4)cc3)CC2)n[nH]c1=O	1.4	14.1
O=C(Cn1nc2c(c1NC(=O)c1cnccn1)CSC2)NCc1ccc(F)cc1	-5.0	-3.8
CCOC(=O)C=C1SCC(=O)N1CC(=O)c1[nH]c(C)c(C(=O)OC)c1C	2.6	-0.6
CC(C)(C)c1nnc(NCc2ccco2)[nH]c1=O	0.4	-2.4
COc1ccccc1C1CCCN1C(=O)CCCn1nnnc1CN1CCOCC1 (stereo not drawn)	5.5	5.9
O=C(NCc1ccco1)c1ccc(-c2ccc(F)cc2)s1	31.2	46.6
NCCc1n[nH]c(=O)n1Cc1cccs1	2.1	2.6
CCCN(C)c1cc(Cl)nc(SCC(=O)N(C)CCc2ccc(OC)c(OC)c2)n1	-14.9	-7.2
O=S(=O)(Nc1ccc2cn[nH]c2c1)c1ccc(Br)cc1Cl	0.6	4.7
Nc1nc2n[nH]nc2c(=O)[nH]1	-2.2	-5.9
C=CCCC(=O)N1CCC(=O)N(CC)C[C@H]2COc3cc(OC)ccc3[C@H]21	3.1	8.9
COc1cc(Nc2nc(C(F)(F)F)nc3ccccc23)cc(OC)c1	8.3	7.9
Cc1nnc2c(=O)n(-c3ccc(F)cc3)ccn12	0.3	-6.5

Source: PubChem
